# Screening results (PubChem)
# ClpP mod: qHTS Assay for Activators of ClpP. ATP-dependent Clp protease proteolytic subunit (Bacillus subtilis (strain 168)), P80244. purified B. subtilis ClpP, FRET peptide cleavage, 20 min. Potency, µM (top dose mostly 57.5 µM), for inactives: top-dose activity change, negative = active. 1.9% of 340,000 active. AID 651965, 2013; active = well fitted falling curve with a large enough effect; inconclusive = small, poorly fitted or top-dose-only effect; inactive = no such curve, though single readings can be large or run the other way; further: potency means the concentration at half of the fitted maximal effect; the source files actives as falling curves though it sought activators and does not explain the sign; nearly all actives have a fitted effect of over 65% in size; many hits overshoot -100%
# Target sequence (P80244 whole entry, looked up): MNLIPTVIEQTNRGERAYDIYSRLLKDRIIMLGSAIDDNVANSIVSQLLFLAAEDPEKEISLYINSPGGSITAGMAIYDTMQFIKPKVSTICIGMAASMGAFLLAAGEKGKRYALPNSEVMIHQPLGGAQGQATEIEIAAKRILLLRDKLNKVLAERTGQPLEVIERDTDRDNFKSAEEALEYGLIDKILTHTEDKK
#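 FRET quenching reversal measured ClpP activation: 10 microg/mL B. subtilis ClpP at pH 8 with the FRET-FV decapeptide, read at 430 nm after 320 nm excitation. The 20-min minus 0-min signal was scaled between DMSO/no-enzyme wells and ADEP (5.8 microM final).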
# TRPV1 potentiator: potentiators of human vanilloid receptor 1 (TRPV1). Q8NER1. TRPV1-expressing cells, Fluo-8 calcium influx, capsaicin EC20 potentiation; host cell line not named in the record; control for the full effect not named in the record. potentiation, % at 8.33 µM. 0.02% of 320,000 active; active means potentiation above 80%; inconclusive means 30% to 80%; inactive means below 30%; further: 0% is about no effect
# Target sequence (Q8NER1 whole entry, looked up): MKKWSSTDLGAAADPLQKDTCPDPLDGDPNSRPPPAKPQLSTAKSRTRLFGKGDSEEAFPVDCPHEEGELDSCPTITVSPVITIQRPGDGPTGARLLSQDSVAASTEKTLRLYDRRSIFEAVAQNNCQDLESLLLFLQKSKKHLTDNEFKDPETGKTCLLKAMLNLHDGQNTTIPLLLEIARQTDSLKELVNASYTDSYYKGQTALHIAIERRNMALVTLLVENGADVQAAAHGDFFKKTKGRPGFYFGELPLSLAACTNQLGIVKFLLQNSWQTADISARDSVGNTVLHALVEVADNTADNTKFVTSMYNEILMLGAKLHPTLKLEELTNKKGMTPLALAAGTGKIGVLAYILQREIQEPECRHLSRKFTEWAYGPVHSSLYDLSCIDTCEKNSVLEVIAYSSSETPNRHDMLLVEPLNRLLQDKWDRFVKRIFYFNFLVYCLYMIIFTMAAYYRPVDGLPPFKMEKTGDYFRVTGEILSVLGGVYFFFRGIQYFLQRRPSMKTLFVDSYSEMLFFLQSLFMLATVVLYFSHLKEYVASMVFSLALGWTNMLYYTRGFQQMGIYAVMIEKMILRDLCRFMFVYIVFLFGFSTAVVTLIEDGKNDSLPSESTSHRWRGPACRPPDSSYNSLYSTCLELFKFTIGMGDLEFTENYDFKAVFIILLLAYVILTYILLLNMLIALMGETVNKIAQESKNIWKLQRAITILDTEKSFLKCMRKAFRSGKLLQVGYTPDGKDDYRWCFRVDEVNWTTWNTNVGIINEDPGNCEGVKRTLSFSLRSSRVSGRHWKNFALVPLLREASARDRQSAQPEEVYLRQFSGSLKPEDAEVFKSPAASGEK
#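 TRPV1-expressing cells were cultured overnight at 35.5C and loaded with Fluo-8 calcium dye for 40 to 90 min at room temperature. After a 10 s baseline, compound was added and calcium influx was read kinetically for 3 min (ex 480/em 520 nm).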
# Sfp inh: inhibitors of Bacillus subtilis Sfp phosphopantetheinyl transferase | 3.5% of 310,000 active | AID 1490 | Potency, µM, without a hit: max response, negative = inhibition, hits mostly inhibitors | Biochemical Sfp PPTase activity, qHTS; active means well fitted inhibition curve with a large enough effect; inconclusive means small, poorly fitted or top-dose-only effect, or another doubt; inactive means no such curve, though single readings can be large or run the other way;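 further: the enzyme is Sfp with the accession as filed and its product quenches rhodamine fluorescence; potency means the concentration at half of the fitted maximal effect; 0% = enzyme reaction without inhibitor and -100% = no enzyme wells; top concentration of the series not given in the record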
#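 After 15 min at room temperature with compound, 15 nM Sfp received 5 uM rhodamine-CoA plus 12.5 uM BHQ-2-ybbR (50 mM Hepes pH 7.6, 10 mM MgCl2). Rate came from the fluorescence difference over 30 min, ex 525/em 598 nm.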
# TRPML1 inh: human mucolipin-1 channel inhibition. activity change, negative = inhibition, % (concentration not given with the values). 0.02% of 390,000 active. TRPML1-inducible cells, Ca2+ dye fluorescence, FDSS; stronger effect = lower value; inhibition of EC80 agonist-evoked calcium signal. Q9GZU1; in the data active means activity change below about -50%; inconclusive means about -30% to -50%; inactive means above about -30%;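 further: stimulus is agonist 54-4 at its EC80 concentration; on the % scale 0 is the no-effect control and ±100 the full control effect; compound concentration not given in the record; the text of the record puts the active cut at -80%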
#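 Tet-induced TRPML1-DL cells loaded with Ca8 no-wash calcium dye were read kinetically on FDSS. Compound addition was followed by EC80 agonist 54-4 (4 uM final); inhibition was read over 110 s.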
# Menin-MLL FL inh: displaces fluorescein MLL peptide from human menin; Fluorescence polarization, fluorescein-MLL peptide displacement from menin; FP activity change, % at 61.4 µM; 290,000 tested, under 10 active; AID 1766; inconclusive = falling polarisation curve, or a change in total fluorescence; inactive = total fluorescence flat and polarisation flat or rising; no compound was filed as active; the % refers to the polarisation; negative = inhibition;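 further: % of control where 0% means no effect; inhibitors lower the polarisation; unlabelled MLL peptide was the positive control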
# TRPML1 agonist: agonists of human TRPML1 channel; Q9GZU1; TRPML1-expressing cells, Ca2+ dye fluorescence, FDSS; host cell line not named in the record; reference of the full effect not given here; activation, % (no concentration beside the values); 0.12% of 410,000 active; in the data active = activation above about 50%; inconclusive = about 30% to 50%; inactive = below about 30%; further: 0% is about no effect; the text of the record puts the active cut at 80%
#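 In this qHTS format, compounds were pin-transferred onto Ca8-dye-loaded TRPML1-DL cells induced with Tet overnight, and intracellular Ca2+ fluorescence was recorded kinetically for 110 s after a 10 s baseline. A subsequent 4uM final 54-4 (EC80) addition followed by a second 110 s read served as the antagonist phase.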
# PINK1 expr mod: modulators of PINK1 expression; Potency, µM (titrated, usually from 76.6 µM), for the others: at the highest dose activation (PINK1 increase), hits mostly activators; 0.2% of 410,000 active; PINK1 immunofluorescence, high-content cytometry, 24 h; active = well fitted activation curve with a large enough effect; inconclusive = small, poorly fitted or top-dose-only effect; inactive = flat fitted curve, though single readings scatter; cell line not stated here;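 further: potency means the concentration at half of the fitted maximal effect; % of control where 0% means no effect; nearly all actives have a fitted effect of over 65% in size; a mitochondrial uncoupler was the plate control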
#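 Cells are seeded, rested 12 hours, then given compound at five concentrations or DMSO for 24 hours. After fixation, blocking and antibody staining, PINK1 amount and mitochondrial localization are scored; CCCP serves as control.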
# * = called active by the depositor; ? = inconclusive; . = not tested or not shown; [ ] = dose if it differs, or a comment.
SMILES,ClpP mod,TRPV1 potentiator,Sfp inh,TRPML1 inh,Menin-MLL FL inh,TRPML1 agonist,PINK1 expr mod
CCc1cc2c(SCC#N)ncnc2s1,.,-4,4%,-2,-1.4,-1.2,0.3%
CCc1ccc(S(=O)(=O)NCc2csc(C)n2)cc1,.,4,13%,34,0.2,0.7,2.6%
CN(C)c1nnnn1-c1cccc(Oc2ncc(C(F)(F)F)cc2Cl)c1,.,7,5%,9,-3.3,1.2,5.2%
Cc1cc(N/N=C/c2ccc(N(C)C)cc2)nc(NCc2ccccc2)n1,3.8%,-1,20µM*,13,3.2,6.4,5.0%
CCc1nnc(NC(=O)Cn2nc(-c3ccc(OC)c(OC)c3)ccc2=O)s1,-0.4%,17,9%,-10,1.5,0.1,-3.7%
CCOc1ccc2ncc3c(-c4cccc(OC)c4)nn(-c4ccccc4)c3c2c1,10µM*,.,.,22,.,4.3,3.3%
CC(=O)COC(=O)c1cc(-c2ccc(C)cc2)nc2ccccc12,4.1%,-7,-10%,-2,2.9,0.5,0.8%
Cc1cc(NC(=S)Nc2ccc(C)c(Cl)c2)n[nH]1,.,2,?,6,3.3,0.2,2.5%
COc1ccc(S(=O)(=O)N(C)C)cc1NC(=O)CN1CCN(C(=O)C2CC2)CC1,0.4%,13,.,-5,.,-0.5,9.9%
CC(Oc1ccc2c3c(c(=O)oc2c1)CCC3)C(=O)NCc1cccnc1 (centres undefined),3.9%,-9,14%,14,.,1.6,1.3%
N/C(CC(=O)NC1CCCCC1)=N\OCC(=O)Nc1ccc(Cl)c(Cl)c1,.,4,5%,25,7.1,0.3,5.1%
NC(=O)c1cc2ccncc2c2ccccc12,4.2%,-6,16%,5,-0.2,-0.1,2.1%
Cc1cc(Cl)ccc1OC(C)C(=O)NNC(=O)C1CCCCC1C(=O)O (centres undefined),-3.4%,-3,11%,-22,.,0.4,0.1%
C[C@H](NC(=O)C1CCN(S(=O)(=O)c2ccccc2)CC1)C(=O)NCc1ccccc1,0.0%,-2,10%,-5,.,-1.0,-0.5%
Cn1nc(/C=C/c2ccccc2)ccc1=O,.,?,5%,-8,0.0,-0.1,2.0%
COc1ccc(CN2CCN(C(=O)CCC(=O)Nc3nnc(C(F)(F)F)s3)CC2)cc1F,1.4%,16,24%,10,-2.1,-0.4,2.1%
O=C1CS/C(=N/N=C/c2cccs2)N1,.,-2,-7%,43,14,-0.7,0.5%
COc1cc(C(=O)NCCOc2cc(C)ccc2C(C)C)cc(OC)c1OC,.,-5,-2%,45,3.7,2.7,10%
O=C(Cn1nc(-c2ccccc2)ccc1=O)Nc1ccc(-n2cnnn2)cc1,.,-3,-17%,25,2.8,1.1,-0.5%
Cc1ccc(NC(=O)Cn2nnc3ccccc32)c(C)c1,.,12,14%,14,3.4,0.6,0.4%
COC(=O)c1ccc(COc2ccc3c(c2)CCC3)o1,.,2,5%,14,-1.0,2.8,1.6%
O=C(CN1C(=O)COc2ccc(S(=O)(=O)NC3CCCC3)cc21)Nc1ccc(Cl)cc1,0.5%,.,.,5,.,0.4,26%
CCOc1ccc(CCNC(=O)COC(=O)CSc2ccc(C)cc2)cc1OCC,-1.1%,24,.,4,.,0.4,1.3%
CC(=O)Nc1cccc(NC(=O)c2cc(-c3ccccn3)nc3ccc(Cl)cc23)c1,-4.2%,-4,-7%,3,-13,0.9,8.6%

# 2 of the compounds above, field by field:
COC(=O)c1ccc(COc2ccc3c(c2)CCC3)o1
  ClpP mod: .
  TRPV1 potentiator: 2
  Sfp inh: 5%
  TRPML1 inh: 14
  Menin-MLL FL inh: -1.0
  TRPML1 agonist: 2.8
  PINK1 expr mod: 1.6%

O=C(CN1C(=O)COc2ccc(S(=O)(=O)NC3CCCC3)cc21)Nc1ccc(Cl)cc1
  ClpP mod: 0.5%
  TRPV1 potentiator: .
  Sfp inh: .
  TRPML1 inh: 5
  Menin-MLL FL inh: .
  TRPML1 agonist: 0.4
  PINK1 expr mod: 26%

# Additional records.
SMILES,ClpP mod,TRPV1 potentiator,Sfp inh,TRPML1 inh,Menin-MLL FL inh,TRPML1 agonist,PINK1 expr mod
CC(=O)c1cccc(NC(=O)C2CCN(S(=O)(=O)c3ccc4c(c3)oc(=O)n4C)CC2)c1,-1.6%,.,.,7,.,0.0,2.6%
CC1CCn2c(nc3cc(C(=O)NCCc4ccc(Cl)cc4)ccc32)C1 (centres undefined),-2.4%,.,.,-18,.,1.6,1.3%
CCc1ccc(NC(=O)CNC(=O)c2nn(-c3ccc(OC)cc3)c(=O)c3ccccc23)cc1,-25%,10,25%,-5,5.9,-1.2,3.9%
CC(=O)Nc1ccc(NC(=O)CSc2cn(CC(=O)N(C(C)C)C(C)C)c3ccccc23)cc1,0.8%,.,.,-2,.,1.5,-0.5%
Cc1ccc(S(=O)(=O)N2CCOC2CNC(=O)C(=O)NCc2ccccn2)cc1 (centres undefined),-1.6%,22,10%,-3,.,0.8,-1.3%
CCOc1ccc(-n2c(=O)c3c(C)c(C)sc3n(Cc3ccccc3C)c2=O)cc1,-0.2%,.,.,17,.,1.6,0.4%
CNC(=O)C(=O)NCC(c1ccc2c(c1)OCO2)N1CCOCC1 (centres undefined),0.8%,.,.,38,.,-0.5,-1.4%
CC1CC(=O)Nc2ccccc2N1C(=O)COc1cc(Cl)ccc1Cl (centres undefined),-2.5%,-8,.,-2,.,2.5,-0.3%
COc1ccc(C(=O)NCC(=O)OCC(=O)N2CC(C)OC(C)C2)cc1OC (centres undefined),2.7%,.,.,36,.,0.5,-0.7%
CCC(C(=O)N1CCCC1)n1nc(C)c2c(C)n(-c3ccccc3)nc2c1=O (centres undefined),-0.8%,16,17%,-15,-4.9,-0.4,0.4%
O=c1oc2cc(S(=O)(=O)NCCCO)ccc2c2ccc(S(=O)(=O)NCCCO)cc12,?,8,15%,12,0.2,0.8,0.4%
COc1ccc(-c2cccc(C(=O)Nc3ccc(C)cc3)c2)cc1,2.4%,.,1%,26,2.7,1.0,17%
COc1ccccc1C(=O)Nc1c2c(nn1-c1cccc(C)c1C)CS(=O)(=O)C2,?,-3,-15%,7,-3.0,-0.1,24%[38.3 µM]
Cc1cc(Nc2ccc(Cl)cc2)n2ncnc2n1,-0.1%,?,-5%,37,-2.5,1.0,-0.4%
CC(=O)c1cccc(NC(=O)Cn2c(SCC(=O)Nc3ccc(F)cc3)nc3ccccc32)c1,-4.7%,.,.,-6,.,4.1,-0.5%
CSc1ccccc1CNc1nc(NCC2CC2)nc2ccsc12,-9.4%,.,.,.,.,-0.4,?
Cc1nc(N)sc1C(=O)OCC(C)C,0.3%,13,9%,-8,-1.6,-0.5,-0.3%
CC(=O)Nc1sc(C)c(C)c1C(=O)OCC(=O)N(CCC#N)c1cc(C)cc(C)c1,-11%,0,.,19,.,1.3,6.3%
Cc1ccc(C2Nc3cc(C)c(C)cc3-n3c(-c4ccccc4)c4c(=O)n(C)c(=O)n(C)c4c32)o1 (centres undefined),-14%,.,.,51,.,-0.9,-0.5%
O=C(OCC(=O)N1CCN(C(=O)c2ccco2)CC1)c1cccc(O)c1,-2.5%,1,-10%,6,.,-0.2,0.4%
Clc1ccc(SCc2cc(-c3ccccc3)no2)cc1,-1.4%,3,17%,5,2.6,0.6,5.5%
CC(=O)NCCNc1nc(NCc2cccs2)nc2ccsc12,-19%,.,.,.,.,6.1,1.7%
O=S(=O)(NCCc1csc2nc(-c3ccc(F)cc3)nn12)c1ccc(Oc2ccccc2)cc1,1.6%,.,.,27,.,3.8,1.2%
Cc1ccc(NC(=O)N2CCCN(Cc3ccc(F)cc3)C2)cc1C,-2.9%,?,11%,15,-0.5,-1.0,3.0%
CCc1ccccc1Nc1sc(C(=O)c2cccc(OC)c2)c(N)c1S(=O)(=O)c1ccccc1,-13%,.,.,10,.,-0.5,-1.2%
Cn1c(=O)c2sccc2n2c(CCCC(=O)NCCc3ccccc3)nnc12,0.1%,-6,4%,1,-1.3,-0.5,2.6%
COc1ccc(N=C2C(=O)N3CCCc4cccc2c43)cc1,87%,-1,-5%,12,?,-0.4,-0.6%
CCN(CCn1cccn1)Cc1nc(-c2ccc(C(=O)OC)cc2)no1,.,9,5%,0,0.2,0.4,0.5%
Cn1cc(Br)c(C(=O)Nc2sc3c(c2C(N)=O)CCCC3)n1,.,1,-28%,17,-0.2,-0.6,0.7%
CCOC(=O)C(CC)(CC)C(=O)/C=C/c1ccc(OC)cc1,-5.4%,3,3%,-8,3.7,0.7,9.1%
CCOc1ccccc1NC(=O)CC1SC(=N)N(c2ccccc2)C1=O (centres undefined),.,-2,-5%,.,0.9,.,.
COc1ccc(C(=O)NC(=S)Nc2ccc3c4c(cccc24)CC3)cc1OC,9.6%,15,-19%,0,7.2,1.5,0.8%
Cc1ccc2nc(C)c(C(=O)O)cc2c1,.,4,3%,-22,?,0.6,1.3%
COc1ccc(S(=O)(=O)NC(C)c2ccccc2)cc1C(=O)N1CCCCC1 (centres undefined),-1.1%,-4,-30%,-3,.,-0.3,-1.0%
O=C(Cc1c(F)cccc1Cl)N/N=C/c1cccs1,0.9%,4,-14%,-2,-3.9,1.7,1.4%
Cc1ccc(-n2c(SCC(=O)NCc3ccco3)nc3sc4c(c3c2=O)CC(C)(C)SC4)cc1,-5.2%,4,5%,-5,7.7,-0.7,10%
Cc1cc(C(=O)N2CCN(c3ncccn3)CC2)c(C)o1,-9.6%,13,11%,-17,0.5,0.5,-2.6%[38.3 µM]
Cc1cnn(CCC(=O)NNC(=S)NCC(C)C)c1,0.9%,7,4%,5,0.7,-0.5,1.5%
Cc1nn(Cc2ccc(Cl)cc2)c(C)c1NC(=O)Cn1nc([N+](=O)[O-])c(Cl)c1C,1.5%,3,-14%,-18,0.6,-0.7,5.9%
CC(C)C(=O)N1CCC2(CC1)Oc1ccc(F)cc1C(=O)C21CC(c2cccnc2)=NO1 (centres undefined),.,-14,4%,.,0.9,.,.
Cc1ccc(NC(=O)C(Cc2ccccc2)NS(=O)(=O)c2ccc3c(c2)oc(=O)n3C)cc1F (centres undefined),-1.7%,.,.,-2,.,2.6,4.7%
